Source: PubChem
NPR1 antag: blocks ANP-stimulated signaling of human Npr1 receptor. P16066. HEK293 hNpr1 GloSensor cGMP, ANP-stimulated luminescence. Potency, µM (series often up to 46.3 µM), for inactives: at the highest dose activity change, negative = inhibition, most hits filed as inhibitors. 1.6% of 76,000 active. AID 1347048; active = well fitted inhibition curve with a large enough effect; inconclusive = small, poorly fitted or top-dose-only effect; inactive = no such curve, though single readings can be large or run the other way;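 note: nearly all actives have a fitted effect of over 60% in size; nearly all hits also lower the signal before the agonist is added; a reference antagonist and vehicle were the controls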
Target sequence (P16066 whole entry, looked up): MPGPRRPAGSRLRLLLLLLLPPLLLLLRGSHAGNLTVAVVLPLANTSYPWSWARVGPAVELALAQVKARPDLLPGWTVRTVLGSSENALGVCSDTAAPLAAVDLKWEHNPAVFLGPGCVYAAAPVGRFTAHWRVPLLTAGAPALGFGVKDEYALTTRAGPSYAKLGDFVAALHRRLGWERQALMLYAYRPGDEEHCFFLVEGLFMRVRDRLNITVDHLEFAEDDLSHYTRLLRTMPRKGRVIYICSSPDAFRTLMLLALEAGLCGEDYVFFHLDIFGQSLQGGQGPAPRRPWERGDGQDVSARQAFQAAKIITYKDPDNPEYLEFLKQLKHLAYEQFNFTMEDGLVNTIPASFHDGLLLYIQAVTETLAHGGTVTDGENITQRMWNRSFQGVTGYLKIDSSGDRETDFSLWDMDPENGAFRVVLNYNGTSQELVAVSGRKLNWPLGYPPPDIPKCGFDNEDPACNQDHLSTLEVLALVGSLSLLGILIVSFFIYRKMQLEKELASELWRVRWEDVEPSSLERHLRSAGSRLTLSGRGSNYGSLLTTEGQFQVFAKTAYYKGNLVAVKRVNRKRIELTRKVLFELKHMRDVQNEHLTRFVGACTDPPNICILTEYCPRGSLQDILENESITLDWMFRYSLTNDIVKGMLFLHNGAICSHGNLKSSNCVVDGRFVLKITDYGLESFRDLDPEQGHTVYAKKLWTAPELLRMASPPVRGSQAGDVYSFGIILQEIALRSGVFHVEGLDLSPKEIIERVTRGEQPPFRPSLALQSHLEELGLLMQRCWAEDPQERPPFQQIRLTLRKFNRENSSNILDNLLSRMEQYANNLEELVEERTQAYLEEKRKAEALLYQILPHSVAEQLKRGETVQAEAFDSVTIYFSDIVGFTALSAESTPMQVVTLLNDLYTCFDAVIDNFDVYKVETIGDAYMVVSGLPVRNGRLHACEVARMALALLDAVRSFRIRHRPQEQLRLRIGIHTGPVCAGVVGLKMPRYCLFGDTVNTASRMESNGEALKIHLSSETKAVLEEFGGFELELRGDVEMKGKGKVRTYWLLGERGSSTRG
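Compound pre-incubated 30 min at room temperature on GloSensor-loaded HEK293 cells stably carrying hNpr1 and the pGS-40F cGMP biosensor. Stimulation uses hNppA at 0.1 nM final; luminescence is taken at baseline and 20 min post-agonist.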
Starred values were filed as active, the others as inactive; u = inconclusive; [ ] = dose if it differs, or a comment. % is set by controls: 0 for no effect and ±100 for the full control effect; potency is the fitted concentration of half-maximal effect. These rows are one share of the data; rates above refer to the full screens.

SMILES	NPR1 antag
COc1ccc(C2=NOC3(CCN(Cc4cccnc4)C3)C2)cc1 (stereo not given)	-21%[70.6 µM]
c1cc(C2CCCNC2)[nH]n1 (stereo not given)	4%
COc1ccc(CCC(=O)N2[C@H]3CC[C@@H]2c2cnc(-c4ccccc4)nc2C3)cc1	0%
O=C(O)COCC(=O)N1C[C@@H]2C[C@H](C1)c1ccc(-c3cccc(C(F)(F)F)c3)c(=O)n1C2	3%
CCCS(=O)(=O)N1C[C@@H]2C[C@H](C1)c1c(-c3cccc(C#N)c3)ccc(=O)n1C2	1%[70.6 µM]
O=C1CO[C@H]2CN(Cc3ncc[nH]3)C[C@H]2N1Cc1ccccn1	5%[70.6 µM]
CSc1cccc(NC(=O)NC[C@H]2C[C@@H]3CCN2C[C@@H]3CN(C)c2ccccc2)c1	-17%[70.6 µM]
COCCN1CCC(N2CCN(C(=O)Cc3cccc(C)c3)CC2)C1=O (stereo not given)	10%
c1ccc(CCCN2CCC3(CCNCC3)C2)cc1	1%
O=C(COc1ccccc1)N1C[C@@H]2C[C@H](C1)c1c(-c3ccccc3F)ccc(=O)n1C2	-4%[70.6 µM]
CCC(CC)c1cc([C@H]2CN3CC[C@H]2C[C@@H]3COC(=O)Nc2ccc(C(C)(C)C)cc2)nc(-c2ccncc2)n1	-24%
CN1Cc2ccccc2-n2ccnc2C12CCN(C(=O)Cc1ccc(Cl)cc1)CC2	u
Cc1ccccc1-c1ccc2n(c1=O)C[C@H]1C[C@@H]2CN(S(=O)(=O)c2ccccc2C#N)C1	-3%
COc1ncc(-c2cc3c(cc2OC)C2(CCN(C(C)=O)CC2)C(=O)N3)cn1	3%[70.6 µM]
CC(C)C(=O)N1CCC2(CC1)NCc1ccccc1-n1ccnc12	-11%
Cn1cc(CN2CCN(C(=O)Cc3ccsc3)CC2)ccc1=O	0%
CCC(CC)c1cc([C@H]2CN3CC[C@H]2C[C@@H]3CNC(=O)NCc2ccccc2)nc(-c2ccncc2)n1	11µM*
COCc1cn(C[C@H]2C[C@@H]3CCN2C[C@@H]3C(=O)NCc2ccccc2)nn1	2%[70.6 µM]
C=CCN(C)C(=O)[C@H]1CN2CCC1C[C@@H]2Cn1cc(CNC)nn1 (stereo not given in full)	4%[70.6 µM]
COCc1cn(C[C@H]2C[C@@H]3CCN2C[C@@H]3C(=O)NCc2ccccc2OC)nn1	4%[70.6 µM]
CN(C)c1ccc(C(=O)NC[C@H]2C[C@@H]3CCN2C[C@@H]3CN2CCCCC2)cc1	-6%[70.6 µM]
CC[C@H]1CN2CC[C@H]1C[C@@H]2CNC(=O)Nc1cccc(SC)c1	2%[70.6 µM]
COCc1cn(C[C@H]2CC3CCN2C[C@@H]3C(=O)N2CCN(c3ccccc3OC)CC2)nn1 (stereo not given in full)	-1%
O=[S+]1([O-])NCC2(CCN(Cc3cccnc3)C2)Nc2ccccc21 (stereo not given)	0%
CN1CCN(C(=O)Cc2c[nH]c3ncc(-c4ccnn4C)cc23)CC1	3%[70.6 µM]
COc1cccc([C@@H]2CCN(Cc3cc4ccccc4n(C)c3=O)C[C@H]2O)c1	-4%
Cc1ccccc1-c1ccc2n(c1=O)C[C@H]1C[C@@H]2CN(Cc2cccs2)C1	u
CN(C)Cc1ccccc1-c1ccc2n(c1=O)C[C@H]1C[C@@H]2CN(C(=O)c2ccco2)C1	6%[70.6 µM]
Cc1ncc2c(n1)C[C@@H]1CC[C@H]2N1C(=O)c1nn(C)c2ccccc12	11%
O=C1N(C2CCCCC2)C[C@H]2CN(Cc3ccncc3)CCN12	1%[70.6 µM]
CCNC(=O)NC[C@H]1C[C@@H]2CCN1C[C@@H]2c1cc(-c2ccc(OC)c(OC)c2)nn1C	-7%[70.6 µM]
COc1ccccc1-c1cc([C@H]2CN3CC[C@H]2C[C@@H]3COC(=O)Nc2ccc(C(C)=O)cc2)n(C)n1	-1%
O=C(C1CCCCC1)N1C[C@@H]2C[C@H](C1)c1c(-c3cncnc3)ccc(=O)n1C2	6%[70.6 µM]
CCCCN1CCC2(COC(=O)N2c2ccncc2)C1 (stereo not given)	5%[70.6 µM]
O=C1NC2(CCCN(Cc3ccccn3)C2)Oc2ccccc21 (stereo not given)	23%[70.6 µM]
O=C1CO[C@H]2CN(Cc3ccccn3)C[C@H]2N1Cc1ccccn1	3%[70.6 µM]
COc1ccc(C(=O)N2CCC3(CC2)c2nccn2-c2ccccc2CN3C)c(OC)n1	u
O=S(=O)(NC[C@H]1C[C@@H]2CCN1C[C@@H]2CN1CCc2ccccc2C1)c1ccc(Cl)cc1	4%
C=CCN(C)C[C@H]1CN2CC[C@H]1C[C@@H]2CNC(=O)c1ccc(N(C)C)cc1	-2%[70.6 µM]
O=c1cccc2n1C[C@H]1C[C@@H]2CN(C[C@H]2CN3CC[C@H]2C[C@@H]3CNS(=O)(=O)c2ccccc2)C1	-1%
CN(C)CCN(C)C[C@H]1CN2CC[C@H]1C[C@@H]2CNC(=O)Nc1ccsc1	-2%[70.6 µM]
COc1ccccc1-n1cc(C2=CCN(CCOCCO)CC2)cn1	7%
C=C[C@H]1CN2CC[C@H]1C[C@@H]2CNS(=O)(=O)c1ccc(NC(C)=O)cc1	1%[70.6 µM]
O=C(Nc1ccc2n(c1=O)C[C@H]1C[C@@H]2CN(Cc2ccc(F)cc2)C1)c1cccs1	u
O=C(Nc1ccc2n(c1=O)C[C@H]1C[C@@H]2CN(C(=O)c2ccccn2)C1)c1ccccc1	4%[70.6 µM]
COc1cc2c(cc1OCc1ccccc1)N([S+](=O)([O-])c1cccc(C)c1)CC21CCN(C)CC1	-2%
CN(Cc1ccccc1)C[C@H]1CN2CC[C@H]1C[C@@H]2CNC(=O)Nc1cccc(C#N)c1	5%[70.6 µM]
COc1ccc2c(c1)C1(CCN(S(=O)(=O)c3cccc(F)c3)C1)C(=O)N2 (stereo not given)	-16%
Cc1nc(-c2ccccc2)cc([C@H]2CN3CC[C@H]2C[C@@H]3CN(Cc2ccco2)Cc2ccco2)n1	-16%
CN(C)C(=O)[C@H]1CN2CCC1C[C@@H]2Cn1cc(C2(O)CCCCC2)nn1 (stereo not given in full)	-4%[70.6 µM]
The results go on.
SMILES	NPR1 antag
COc1ccccc1N1CCN(C(=O)[C@H]2CN3CCC2C[C@@H]3Cn2cc(CO)nn2)CC1 (stereo not given in full)	4%
C=CCN(C)C[C@H]1CN2CC[C@H]1C[C@@H]2CNS(=O)(=O)c1ccc(C)cc1	-7%[70.6 µM]
O=S(=O)(NC[C@H]1C[C@@H]2CCN1C[C@@H]2CN1CCCCC1)c1ccccc1	8%[70.6 µM]
COc1cc2c(cc1Oc1ccccc1)NC(=O)C21CCN(CC2CC2)CC1	-2%[70.6 µM]
Cc1ccc(C(=O)N2CCC3(CC2)c2nccn2-c2ccccc2CN3CC(C)C)cc1F	-20%
COc1cc2c(cc1-c1ccncc1)NC(=O)C21CCN(C(C)=O)CC1	-5%[70.6 µM]
COCCC(=O)N1CCC2(CC1)c1nccn1-c1ccccc1CN2CC(C)C	6%
CNCc1cn(C[C@H]2CC3CCN2C[C@@H]3C(=O)NCc2ccccc2)nn1 (stereo not given in full)	4%[70.6 µM]
O=S(=O)(NC[C@H]1C[C@@H]2CCN1C[C@@H]2CN1CCOCC1)c1ccccc1	2%[70.6 µM]
COc1ccccc1-c1cc([C@H]2CN3CC[C@H]2C[C@@H]3CNC(=O)c2ccco2)nc(C)n1	6%[70.6 µM]
Cn1nc(-c2cccs2)cc1[C@H]1CN2CC[C@H]1C[C@@H]2CNC(=O)Nc1ccccc1	-8%[70.6 µM]
COc1cc2c(cc1-c1cnn(C)c1)NC(=O)C21CCN(C(C)=O)CC1	2%[70.6 µM]
COc1cc2c(cc1Oc1ccccc1)NC(=O)C21CCN(Cc2ccccc2)CC1	u
Cc1ccccc1-c1ccc2n(c1=O)C[C@H]1C[C@@H]2CN(C(=O)Nc2ccccc2)C1	-1%[70.6 µM]
O=C(c1ccccc1)N1C[C@@H]2C[C@H](C1)c1ccc(-c3cncnc3)c(=O)n1C2	6%[70.6 µM]
O=C(NC[C@H]1C[C@@H]2CCN1C[C@@H]2CN1CCN(c2ccccc2)CC1)Nc1ccccc1	4%[70.6 µM]
COc1cc2c(cc1OC1CCCC1)NC(=O)C21CCN(c2ccnc(C)n2)CC1	-10%[70.6 µM]
COc1ccc(CNC[C@H]2C[C@@H]3CCN2C[C@@H]3c2cc(-c3cccs3)nn2C)cc1	1%[70.6 µM]
C#C[C@H]1CN2CC[C@H]1C[C@@H]2CNCc1ccc(F)c(F)c1	2%[70.6 µM]
O=C(Nc1nccs1)[C@H]1CN2CCC1C[C@@H]2Cn1cc(CO)nn1 (stereo not given in full)	0%[70.6 µM]
O=C1NC2(CN(Cc3cccnc3)C2)Oc2ccccc21	u
O=C(NC[C@H]1C[C@@H]2CCN1C[C@@H]2CN1CCOCC1)c1ccccc1	-1%[70.6 µM]
COC[C@H]1CCCN1C[C@H]1CN2CC[C@H]1C[C@@H]2CN	1%[70.6 µM]
Cn1nc(C2CCCCC2)cc1[C@H]1CN2CC[C@H]1C[C@@H]2CN	1%[70.6 µM]
O=C(c1ccc2c(c1)CCO2)N1C[C@@H](c2ccc(F)cc2)[C@@H]2[C@H]1C1CCN2CC1	7%
C=C[C@H]1CN2CC[C@H]1C[C@@H]2CNCc1ccc(OC(F)(F)F)cc1	-1%[70.6 µM]
COc1ccc(NC(=O)N2[C@H]3CC[C@@H]2c2cncnc2C3)cc1F	5%
COc1ccccc1N1CCN(C(=O)[C@H]2CN3CCC2C[C@@H]3Cn2cc(-c3ccccc3)nn2)CC1 (stereo not given in full)	3%
COc1cc2c(cc1OCC1CC1)NC(=O)C21CCN(C(=O)c2cccc(C#N)c2)CC1	0%[70.6 µM]
COc1ccc2c(c1)C1(CCN(C(=O)NCC(C)C)C1)C(=O)N2 (stereo not given)	0%
COc1ccccc1C(=O)N1[C@H]2CC[C@@H]1c1cnc(-c3ccccc3)nc1C2	u
O=C([C@H]1CN2CCC1C[C@@H]2Cn1cc(-c2ccccc2)nn1)N1CCOCC1 (stereo not given in full)	5%[70.6 µM]
Cc1ncsc1CN1CC(CO)C2(CCNCC2)C1 (stereo not given)	8%
CN1C(=O)C2(CCN(Cc3cc4n(n3)CCCNC4)CC2)c2ccccc21	8%
Cn1nc(-c2cccs2)cc1[C@H]1CN2CC[C@H]1C[C@@H]2CNC(=O)c1ccc2c(c1)OCO2	-3%
NCCc1noc(C2CC2)n1	12%
COc1ccc2c(c1)C1(CCN(C(=O)COc3cccc(C)c3)C1)C(=O)N2C (stereo not given)	2%
COCC(=O)NC[C@H]1C[C@@H]2CCN1C[C@@H]2c1cc(-c2ccccc2)nc(C)n1	3%[70.6 µM]
O=C(CCc1ccccc1)N1[C@H]2CC[C@@H]1c1cnc(-c3ccc(F)cc3)nc1C2	u
COC[C@H]1C[C@@H](NC2CCOCC2)[C@H](O)[C@@H]1O	2%[70.6 µM]
Cc1nc(-c2ccc(F)cc2)cc([C@H]2CN3CC[C@H]2C[C@@H]3CNC(=O)C2CC2)n1	2%[70.6 µM]
O=C(NC1CC1)[C@H]1CN2CCC1C[C@@H]2Cn1cc(-c2ccccc2)nn1 (stereo not given in full)	0%[70.6 µM]
CC[C@H]1CN2CC[C@H]1C[C@@H]2CNCc1ccc2c(c1)OCO2	14%[70.6 µM]
c1nc(N2C[C@@H](c3ccc4c(c3)OCO4)[C@@H]3[C@H]2C2CCN3CC2)c2[nH]cnc2n1	0%
CC1=NOC2(CCN(Cc3ccsc3)C2)C1 (stereo not given)	-13%[70.6 µM]
COc1ccccc1-c1cc([C@H]2CN3CC[C@H]2C[C@@H]3CNCc2cccc(C#N)c2)n(C)n1	6%[70.6 µM]
Cn1nc(-c2ccc3ccccc3c2)cc1[C@H]1CN2CC[C@H]1C[C@@H]2CNC(=O)Nc1ccccc1	0%
